HCMV UL50-53 inh: inhibitors of HCMV UL50-UL53 nuclear egress complex interaction; HTRF UL50-UL53 interaction, normalized percent inhibition; inhibition, % (concentration not given with the values); 190,000 tested, 0.15% active; AID 1918969;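 active = both replicates at 50% or more, plus weaker picks with an unusually low signal ratio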;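 note: stock transfer was 100 nL into about 20 µL; 0% = negative control wells and 100% = wells with untagged competitor protein; inactives centre near -12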
GIV-Gai inh: inhibitors of GIV GBA-motif binding to rat Galpha-i3; percent of control (FP), % (no concentration beside the values); AID 1224905; P08753; 210,000 tested, 0.42% active; Galpha-i3/FITC-GIV peptide fluorescence polarization, 90 min; hits give low values; scaled: aluminum fluoride 0%, vehicle 100%;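 active = replicate mean at 85% of control or lower, very high polarization wells dropped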;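 note: wells of about 15 µL received 100 nL stock; the first replicate is given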
Target sequence (P08753 whole entry, looked up): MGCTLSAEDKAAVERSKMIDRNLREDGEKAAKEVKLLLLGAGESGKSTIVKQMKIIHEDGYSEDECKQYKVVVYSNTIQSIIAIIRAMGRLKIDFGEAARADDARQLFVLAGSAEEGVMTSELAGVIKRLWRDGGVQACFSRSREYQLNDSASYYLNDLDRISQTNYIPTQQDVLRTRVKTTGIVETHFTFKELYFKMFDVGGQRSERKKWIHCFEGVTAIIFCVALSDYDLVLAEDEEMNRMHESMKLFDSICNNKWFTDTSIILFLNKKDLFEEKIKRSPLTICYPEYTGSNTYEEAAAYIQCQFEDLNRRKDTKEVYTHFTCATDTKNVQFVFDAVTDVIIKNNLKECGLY
Sa growth 42C: inhibitors of Staphylococcus aureus growth at 42 °C. S. aureus RN4220 growth, OD600, 20 h; hits give low values. relative growth, % (concentration not given with the values). 170,000 tested, 0.53% active. AID 720641;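 active = growth at 42 °C up to 50% and 20 or more points under that at 30 °C, or under 10% at both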;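 note: 300 nL library stock went into each well; scaled to the means of positive and negative controls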
Sa growth 42C second temp: second read-out of Sa growth 42C, no call of its own (marks repeat the call); relative growth, %; measured here: growth at 30 °C;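 optical density after 20 h as mean of two plates; 100% = untreated growth and lower means inhibition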
* marks the source's active call; other numbers are inactive results; nt = no result given; & = joins results of further samples.

SMILES	HCMV UL50-53 inh	GIV-Gai inh	Sa growth 42C	Sa growth 42C second temp
CC(NC(=O)c1cc(=O)[nH]c2ccc(Br)cc12)c1ccccc1 (stereo unspecified)	-2	100	93	100
CCOc1ccc2c(c1)cc(C(=O)Nc1ccc(N(C)C)cc1)n2C	4	101	nt	nt
COc1ccc(-n2c(CCC(=O)OCC(=O)N3CCCCC3C)nc3ccccc3c2=O)c(OC)c1 (stereo unspecified)	-18	nt	95	87
CC(C)n1ncc2c1N=C(c1cccs1)N(C)C2c1ccccc1 (stereo unspecified)	13	nt	85	93
COc1cc(C2C(C(=O)Nc3cc(C)ccn3)=C(C)NC3=C2C(=O)CCC3)cc(OC)c1OC (stereo unspecified)	-24	104	nt	nt
COc1cc(OC)c(N(C)C(=O)CCNC(=O)Cn2cnc3ccccc3c2=O)cc1Cl	-68	110	94	88
Cc1ccc(OCCNCCN)c(Br)c1	-3	101	117	99
Cc1ccc(-c2cc(N3CCN(S(=O)(=O)c4cnn(C(F)F)c4C)CC3)ncn2)cc1	-25	102	nt	nt
Cc1coc2cc3oc(=O)c(CCC(=O)NCc4ccc(Cl)cc4)c(C)c3cc12	9	100	98	88
CC(Nc1ccc(Cl)cc1)C(=O)Nc1ccc(S(N)(=O)=O)cc1 (stereo unspecified)	-24	nt	68	90
Cc1ccc2nc(SC/C(O)=C(\C#N)c3nc4ccccc4[nH]3)[nH]c2c1	-28	nt	114	83
COc1cc(NC(C)=O)ccc1-c1cc2ccccc2oc1=O	-51	105	109	77
CCN(CC)c1ccc(C2CC(=O)C3=C(C2)Nc2ccccc2NC3c2ccc(OC)cc2)cc1 (stereo unspecified)	-12	99	nt	nt
O=C(CC(=O)NC1CCCCCC1)Nc1ccc2nc3n(c(=O)c2c1)CCCCC3	4	111	102	86
Cc1ccccc1COc1ccc(C2CC(=O)Nc3nc(N)[nH]c(=O)c32)cc1 (stereo unspecified)	-22	98	nt	nt
CC(=O)C(Sc1nnc(-c2ccc(Cl)cc2)n1-c1ccccc1)C(=O)N(C)C (stereo unspecified)	-12	107	nt	nt
CCOC(=O)c1cnc2c(OC)cccc2c1N1CCN(c2ccc(OC)cc2)CC1	-41	100	88	80
O=C(O)Cn1c(=O)oc2ccccc21	nt	107	107	90
CN(CC(=O)C(C#N)c1ccccc1)C1CCCCC1 (stereo unspecified)	4	113	95	107
Cc1cc(C)c2c(n1)sc1c3c(c(=O)[nH]c12)C(c1cccc(Cl)c1)C(C#N)=C(N)O3 (stereo unspecified)	-18	nt	106	80
CCC(=O)N1CCc2cc(Br)cc(S(=O)(=O)N3CCN(c4ccc(OC)cc4)CC3)c21	1	103	106	98
CCOC(=O)CC(=O)CSc1n[nH]c2nc3ccccc3n12	-5	111	nt	nt
CC(=O)N1c2ccc(S(=O)(=O)N3CCCCCC3)cc2CC1C(=O)NC(C)C (stereo unspecified)	nt	104	90	92
CCCN(Cc1cccs1)C(=O)Nc1cc(OC)ccc1OC	-9	101	102	93
CCOc1cc(C(=O)NCCc2sc(-c3ccc(F)cc3)nc2C)cc(OCC)c1OCC	nt	96	97	91
O=C(Nc1ccncc1)c1snc2ccc(Cl)cc12	-107	nt	106	76
O=C(CCS(=O)(=O)c1ccc(Br)s1)Nc1cc(C(F)(F)F)cc(C(F)(F)F)c1	-20	105	87	89
Cc1ccc(S(=O)(=O)N2CCC[C@H]2C(=O)N2CCN(Cc3nc4ccccc4s3)CC2)cc1	18	nt	92	102
Cc1nnc(SCC(=O)N2CCOCC2)s1	3	nt	91	117
CC1(C)C(=O)Nc2ccccc2N1C(=O)CSc1nnc2ccccn12	-22	nt	114	92
O=C(Cn1cnc2onc(-c3ccc(Cl)cc3)c2c1=O)Nc1nccs1	-26	105	nt	nt
Cc1cc(C)cc(NC(=O)C2CCN(Cc3cnn(-c4ccccc4)c3-n3cccc3)CC2)c1	-10&-5	106&105	96	40
C=CCn1c(SCC(=O)N2CCN(CCO)CC2)nc2sc3c(c2c1=O)CCC3	-14	99	95	79
O=[N+]([O-])c1cc(-c2nc(-c3ccco3)no2)ccc1NCc1ccccc1	-25	99	95	84
COc1ccc(-c2noc(CC3=NS(=O)(=O)c4ccccc4N3)n2)cc1	-23	107	94	81
CCOC(=O)NC(=S)Nc1cc(C)cc(C)n1	-8	101	100	84
CC(=O)Nc1ccc(CN(CCN(C)C)Cc2ccccc2)cc1	-9	104	99	103
Cc1cc(Br)ccc1NC(=O)Cn1c2ccccc2c(=O)c2ccccc21	-22	100	nt	nt
Nc1nonc1C(=O)N1CCCN(C(=O)Nc2ccc3c(c2)OCCO3)CC1	-15	100	nt	nt
CC(=O)N1c2ccccc2CC1C(=O)N1CCN(c2ccccc2)CC1 (stereo unspecified)	nt	99	75	91
COc1cc(Br)cc(/C=N/N(CCO)C2=NS(=O)(=O)c3ccccc32)c1OC	nt	104	117	92
O=C(NCc1ccc2c(c1)OCO2)c1ccc(CSc2nc3ccncc3[nH]2)cc1	5&-40	102&100	88	65
O=C(Cn1c(-c2cccs2)cc2cc(Cl)ccc21)NCc1ccccc1	nt	103	129	95
COC(=O)c1ccc(NC(=O)N2CC(C)Oc3ccccc32)cc1 (stereo unspecified)	-23	104	101	92
CN(Cc1cnc2nc(N)nc(N)c2n1)c1ccc(C(=O)NC(CCC(=O)O)C(=O)O)cc1 (stereo unspecified)	-44&-61&-47&-138&-69	nt	69	83
Cc1ccc(C(=O)NC2CCN(C(=O)NC3CCCCC3)CC2)cc1	-10	103	93	93
Clc1ccc(-c2ncc3ccccn23)cc1	nt	108	98	67
O=C(CSc1c[nH]c2ccccc12)NC1CCCC1	1	102	100	85
Cc1cccc(CNC(=O)c2ccc(-c3nc(CS(=O)(=O)c4ccccc4)c(C)o3)cc2)c1	nt	106	106	100
c1cc(-c2nc(-c3ccc4c(c3)OCCCO4)cs2)ccc1-c1csnn1	-15	102	117	93
COC(=O)c1sccc1S(=O)(=O)N1CCC(C(N)=O)(N2CCCCC2)CC1	-27&-12	99&100	98	84
CC(=O)N1N=C(CCn2c3ccccc3c3ccccc32)OC1(C)c1cccs1 (stereo unspecified)	-4	98	108	100
CCOc1ccc(S(=O)(=O)c2c(C(=O)c3ccccc3)cnc3cc4c(cc23)OCCO4)cc1	-21	99	nt	nt
COc1ccc(-c2nc(CSCC(=O)N3CCN(c4cccc(C)c4C)CC3)c(C)o2)cc1OC	nt	101	95	59
COc1ccc(OCC(=O)Nc2nnc(S(=O)(=O)N3CCc4ccccc43)s2)cc1	-1	112	110	87
COc1ccc(-c2noc(-c3nnn(-c4ccccc4)c3N)n2)cc1	-11	105	nt	nt
COc1ccc(OC)c(-c2noc(N3CCN(c4cccc(C)c4C)CC3)n2)c1	nt	98	95	94
O=C(c1ccc(S(=O)(=O)NCc2ccco2)cc1)N1CCN(c2ncccn2)CC1	-8	nt	90	83
CCOc1ccc2cc3c(N)c(C(=O)N(CC)CC)sc3nc2c1	-75	119	100	71
O=C(c1cccs1)N(Cc1cccnc1)c1nc2ccc(F)cc2s1	nt	105	128	92

As entered above:
For GIV-Gai inh, `Clc1ccc(-c2ncc3ccccn23)cc1` is listed with 108
For GIV-Gai inh, `COc1ccc(-c2noc(-c3nnn(-c4ccccc4)c3N)n2)cc1` is listed with 105
For HCMV UL50-53 inh, `O=C(CSc1c[nH]c2ccccc12)NC1CCCC1` is listed with 1
For GIV-Gai inh, `O=C(Cn1c(-c2cccs2)cc2cc(Cl)ccc21)NCc1ccccc1` is listed with 103
For Sa growth 42C second temp, `COc1ccc(OC)c(-c2noc(N3CCN(c4cccc(C)c4C)CC3)n2)c1` is listed with 94

Full records as entered above:
Listed for CCOc1ccc2c(c1)cc(C(=O)Nc1ccc(N(C)C)cc1)n2C : HCMV UL50-53 inh = 4; GIV-Gai inh = 101; Sa growth 42C = nt; Sa growth 42C second temp = nt
Listed for COc1ccc(OCC(=O)Nc2nnc(S(=O)(=O)N3CCc4ccccc43)s2)cc1 : HCMV UL50-53 inh = -1; GIV-Gai inh = 112; Sa growth 42C = 110; Sa growth 42C second temp = 87

The list continues.
SMILES	HCMV UL50-53 inh	GIV-Gai inh	Sa growth 42C	Sa growth 42C second temp
Cc1ccc(N2NC(=O)CC2=O)cc1Cl	-16	105	69	26
O=C(NNc1ccccc1)NNc1ccccc1	-5	101	81	77
CC(=O)c1cccc(NC(=O)c2noc3c2CSc2ccccc2-3)c1	-7	101	98	95
CCOC(=O)Cc1csc(SCC(=O)NC2CCCCC2)n1	-1	nt	102	92
Cc1occc1-c1nnc(SCC(=O)NC(C)c2nc3ccccc3n2C)o1 (stereo unspecified)	-22	99	nt	nt
Cc1ccc(N2CC(C(=O)N(C)Cc3c(F)cccc3Cl)CC2=O)cc1 (stereo unspecified)	-20	nt	101	87
CC1CC(C)CN(C(=O)CSc2nc3ccc(N4CCOCC4)cc3c(=O)n2Cc2ccc3c(c2)OCO3)C1 (stereo unspecified)	-20	102	98	89
O=C1CSC(c2ccc(Br)cc2)N1C1CCCCC1 (stereo unspecified)	-22	nt	85	90
Cc1nn(-c2ccccc2)c2nc(-c3cccs3)cc(-c3nnco3)c12	-13	nt	70	87
Cc1ccc(-c2nc(N)n(S(=O)(=O)c3ccc(C)cc3)n2)cc1	-29	97	nt	nt
CN1C(C(=O)c2ccccc2)=C(OC(=O)c2ccc(Cl)cc2)c2ccccc2S1(=O)=O	-20	102	nt	nt
O=C(Cn1nnc(-c2ccc(Cl)cc2)n1)NC1CCS(=O)(=O)C1 (stereo unspecified)	-24	nt	110	90
COc1ccc(OC)c(NC(=O)C2CCCN(S(=O)(=O)c3cc(-c4noc(C)n4)ccc3Cl)C2)c1 (stereo unspecified)	8	102	nt	nt
CC(=O)Nc1ccc(S(=O)(=O)N2c3ccccc3NC(=O)CC2C)c(Cl)c1 (stereo unspecified)	-5	109	101	92
CN(C)S(=O)(=O)c1cccc(CSc2nnc(-c3ccccc3Br)o2)c1	-10	nt	83	90
Cc1ccc(SCC(=O)c2ccc(CC(=O)O)s2)cc1	-7	107	115	99
CC(C)(C)c1cc(N)n(-c2ccccc2)n1	-18	nt	111	90
O=C(NCc1cccc(Cl)c1)c1cnn(-c2ccccc2)c1	-31	104	nt	nt
Cc1ccc(C)c(Nc2nn3c(=O)c4ccc(C(=O)NCc5ccccc5)cc4nc3s2)c1	nt	106	123	89
CC(C)C(=O)NC1CCCCCCCCCCC1	2	nt	104	88
O=C1C2C3C=CC(C3)C2C(=O)N1CCCCN1C(=O)C2C3C=CC(C3)C2C1=O (stereo unspecified)	-12	97	94	93
COC(=O)C1=C(C)OC(N)=C(C#N)C1c1ccco1 (stereo unspecified)	-24	103	100	74
COc1ccc(C=NCc2ccc(OC)cc2)cc1	-5	100	105	94
CNS(=O)(=O)c1cccc(C(=O)OCC(=O)Nc2ccc(N3CCCCC3)cc2)c1	-5	nt	99	92
COc1ccc(S(=O)(=O)N2CC(O)C[C@H]2C(=O)OCC(=O)N2CCCCCC2)cc1 (stereo partly specified)	-25	nt	86	92
COc1ccc(-n2c(SCC(=O)NCc3ccco3)nc3c([nH]c4ccccc43)c2=O)cc1	nt	102	113	78
COC(=O)CN1C(=O)S/C(=C\c2ccccc2)C1=O	-48	103	95	89
O=S(=O)(Nc1ccc(Cn2cnc(-c3nc(-c4cccc(F)c4)no3)c2)cc1)c1ccccc1F	-10	107	nt	nt
CC1=C(C(=O)OC2CCCCCC2)C(c2cccc(Cl)c2)CC(=O)N1 (stereo unspecified)	0	110	103	92
O=C(OC(CN1CCCCC1)CN1CCCCC1)c1ccccc1	5	106	100	100
CSC1=N/C(=C\c2ccc3c(c2)OCO3)C(=O)S1	13	108	111	101
O=C(CN1CCN(c2nc3cc(Cl)ccc3s2)CC1)c1ccccc1	-16	106	96	94
O=C(Cc1cn2ccsc2n1)OCC(=O)N1CCc2ccccc21	-24	nt	95	101
Cc1cccc(-c2ccc(Nc3ccc(C(=O)NC4CCCC4)cc3)nn2)c1	-12	98	nt	nt
Cc1cc(C(F)(F)F)nn1Cc1ccc(C(=O)O)o1	-17	102	96	90
CC(=O)N1CC(C(=O)N2CCN(S(=O)(=O)c3ccc4c(c3)CCCC4)CC2)Oc2ccccc21 (stereo unspecified)	-5	nt	110	86
O=C(NCc1ccco1)c1ccc2c(c1)N(Cc1ccccc1)C(=O)c1ccccc1S2(=O)=O	-30	102	98	87
Cc1ccc(NC(=O)Nc2nc3c(s2)CCCCCC3)cc1C	nt	100	87	90
COCCn1c(=O)c(C#N)cc2c(=O)n3ccccc3nc21	nt	110	103	90
COc1ccc(-n2nnn(CN3CC(C)OC(C)C3)c2=S)cc1 (stereo unspecified)	-54	nt	79	89

In the list so far, two have a CF3 group:
SMILES	HCMV UL50-53 inh	GIV-Gai inh	Sa growth 42C	Sa growth 42C second temp
O=C(CCS(=O)(=O)c1ccc(Br)s1)Nc1cc(C(F)(F)F)cc(C(F)(F)F)c1	-20	105	87	89
Cc1cc(C(F)(F)F)nn1Cc1ccc(C(=O)O)o1	-17	102	96	90

(listing goes on)
SMILES	HCMV UL50-53 inh	GIV-Gai inh	Sa growth 42C	Sa growth 42C second temp
CCOC(=O)c1noc(NC(=O)c2ccc(C(F)(F)F)cc2)c1-c1ccccc1	-27	nt	73	33
CCOC(=O)c1c(C)c(S(=O)(=O)NC(C)(C)CC)c(C)n1C	9	105	nt	nt
COc1ccc(OCCn2c(C3CCCN3C(C)=O)nc3ccccc32)cc1 (stereo unspecified)	-16	101	nt	nt
CC(C)Cc1ccc(S(=O)(=O)N2c3cc(F)ccc3CCC2C)cc1 (stereo unspecified)	nt	102	101	95

Source: PubChem BioAssay (ICCB-Longwood Screening Facility, Harvard Medical School)
